NPYLR7 agonist: activates Aedes aegypti NPYLR7 receptor | AID 1259423 | HEK293T NPYLR7/Galpha15, GCaMP6s calcium fluorescence | activation, % at 10 µM | 270,000 compounds, 0.15% hits; in the data active = activation above about 40%;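 also: 0% = vehicle and 100% = reference agonist at the receptor; some compounds past the cut are filed as inactive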
NPYLR7 agonist max-min: recorded beside NPYLR7 agonist, whose call it bears; activation, %; measured here: Max-Min RFU normalised activation; some inactives read as strong as hits;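 span of the calcium signal over five minutes; 0% = vehicle and 100% = native peptide agonist; compound fluorescence can raise it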
An asterisk follows results filed as active; & = joins results of further samples.

compound,NPYLR7 agonist,NPYLR7 agonist max-min
O=C(c1ccc(Cl)cc1Cl)N1CCCC(OCc2ccc(F)c(F)c2)C1 (centres undefined),-2,0
Cn1cc(S(=O)(=O)N2CCN(c3ccccc3F)CC2)c(=O)n(C)c1=O,-1,-2
Cc1cccn2c(=O)c(C(=O)NCCN3CCOCC3)c(O)nc12,-1,2
COCCCN(Cc1c(-c2cccc(C)c2)noc1N1CCCC1)C(=O)c1cccs1,-1,10
CC(C)c1cc(CNC(=O)C2CC(=O)N(Cc3ccccn3)C2)on1 (centres undefined),2,0
Cc1ccc(CN(C)Cc2cnn3cccnc23)o1,-2,5
O=C(Nc1cnn(C23CC4CC(CC(C4)C2)C3)c1)c1cc(-c2ccccc2)on1,-9,-16
CCCCCCCCC(=O)Nc1c(-c2cccc(F)c2)nc2cc(C)ccn12,-1,7
O=c1c2cnc3ncnn3c2ccn1-c1ccccc1O,8,11
Fc1ccc(C2=Nc3ncnn3C(c3ccccc3)C2)cc1 (centres undefined),2,-2
COCCOC(=O)C1=C(C)NC(C)=C(C(=O)OC/C=C/c2ccccc2)C1c1cccc([N+](=O)[O-])c1 (centres undefined),0,-23
CC(NC(=O)Cc1cc(-c2cc3ccccc3o2)on1)c1ccccc1 (centres undefined),7,9
CCCCNC(=O)c1sc2nc(-c3ccccc3)cn2c1C,-7,-6
COc1ccc(C(=O)NCCCNC(=O)[C@H]2CCCN2C(=O)c2ccco2)cc1,28,32
Cn1cc(Br)cc1C(=O)NCC(C)(O)c1ccsc1 (centres undefined),2,1
CCCCc1nnc(NC(=O)N(Cc2ccccc2C(F)(F)F)C2CC2)s1,2,1
O=C(CCCc1ccc(-c2ccccc2F)cc1)Nc1ccc(O)cc1,4,-5
CC(C)(C)C1(OCBr)C(=O)N=CN=CN1Cc1ccccc1 (centres undefined),7,5
O=C(CSc1nc(=O)[nH]c2c1CCCC2)N1CCN(c2ccccc2)CC1,-8,-11
CCN(CC(=O)N(C)C)C(=O)Cn1c(C)c(Br)c2ccccc21,-19,-13
N#CC(Sc1ccc(C(=O)N2CCCC2)cn1)C1CCCCC1 (centres undefined),-8,-8
O=C(NC1CCC(NC(=O)[C@H]2CCCN2S(=O)(=O)c2ccc(F)cc2)CC1)c1ccccc1 (some centres undefined),2,10
CCN1CCN(c2c(CN(CCCOC)C(=O)COCc3ccccc3)c(C)nn2-c2ccccc2)CC1,0,3
CS(=O)(=O)N(CC(=O)NCc1ccccc1Cl)c1cc(C(F)(F)F)ccc1Cl,-4,-8

Structural class: those above with fluorine
compound,NPYLR7 agonist,NPYLR7 agonist max-min
O=C(c1ccc(Cl)cc1Cl)N1CCCC(OCc2ccc(F)c(F)c2)C1 (centres undefined),-2,0
Cn1cc(S(=O)(=O)N2CCN(c3ccccc3F)CC2)c(=O)n(C)c1=O,-1,-2
CCCCCCCCC(=O)Nc1c(-c2cccc(F)c2)nc2cc(C)ccn12,-1,7
Fc1ccc(C2=Nc3ncnn3C(c3ccccc3)C2)cc1 (centres undefined),2,-2
CCCCc1nnc(NC(=O)N(Cc2ccccc2C(F)(F)F)C2CC2)s1,2,1
O=C(CCCc1ccc(-c2ccccc2F)cc1)Nc1ccc(O)cc1,4,-5
O=C(NC1CCC(NC(=O)[C@H]2CCCN2S(=O)(=O)c2ccc(F)cc2)CC1)c1ccccc1 (some centres undefined),2,10
CS(=O)(=O)N(CC(=O)NCc1ccccc1Cl)c1cc(C(F)(F)F)ccc1Cl,-4,-8

The results go on.
compound,NPYLR7 agonist,NPYLR7 agonist max-min
Cn1ncc(I)c1C(=O)Nc1ccn(Cc2c(F)c(F)cc(F)c2F)n1,2,7
CC1=NC2=C(C(=O)CC(c3ccc(Cl)cc3)C2)C(c2ccc(OCc3ccccc3)cc2)C1C#N (centres undefined),-7,-13
CCOC(=O)c1cc(-c2ccc(CC)cc2)n(C2CCN(C(=O)c3ccc(F)c(F)c3)CC2)n1,4,4
O=C(Cn1cnc2c(nnn2Cc2ccccc2F)c1=O)N1CCCCCC1,9,13
CCn1ccnc1CN1CCc2c([nH]c3ccccc23)C1c1c(F)cccc1Cl (centres undefined),4,0
Cc1c(Cl)cccc1N1CCN(C(=O)c2ccc(C(F)(F)F)cc2)C(C)C1=O (centres undefined),-3,6
Cc1ccc(NC(=O)CNC(=O)C2(N3CCCC3)CCCC2)c(F)c1,16,2
COc1ccc(NC(=O)c2c(NC(=O)CCl)sc3c2CCCC3)cc1,-4,-3
Cc1nc(-c2cccc(NC(=O)NC3CCCCC3C(F)(F)F)c2)no1 (centres undefined),0,-4
COc1cccc(-c2noc(-c3cc(N4CCC(C(N)=O)CC4)nc4ccccc34)n2)c1OC,-1,4
CCCCCCC(=O)NC(Cc1ccccc1)C(=O)Nc1nnc(-c2cccc(Br)c2)s1 (centres undefined),9,2
O=C(NCc1ccccc1)[C@@H]1Cc2nc[nH]c2CN1C(=O)C1CCCCC1,-11,-18
CCc1nnc(CNC(=O)c2ccccc2C2CCNC2)s1 (centres undefined),6,5
CC(=O)Nc1ccc(-c2ccnc3n[nH]c(-c4cccc(C(F)(F)F)c4)c23)cc1,4,3
CCNC(=O)C1(C)CCN1C(=O)c1ccc(C(C)(C)C)cc1 (centres undefined),11,10
Cc1ccc(-n2ncc3c(=O)n(NC(=O)c4cccs4)cnc32)cc1,4,1
c1ccc(Oc2ccccc2-c2cnc3c(NCc4ccco4)nccn23)cc1,-2,-9
Cc1sc(NC(=O)Cn2cnc3sccc3c2=O)nc1-c1ccc(F)cc1,-1,4
CCn1nccc1NC(=O)c1cc(S(=O)(=O)N(C)Cc2ccccc2)ccc1Cl,-4,-7
Cc1ccc(NC(=O)c2cnn(-c3ccccc3C(F)(F)F)c2C)nc1,-2,-5
Cc1cc(C)n2nc(CC(=O)N(Cc3sccc3C)C3CC3)nc2n1,-2,11
OCC1(Cc2ccccc2)CCN(Cc2ccccc2-c2ccco2)CC1,0&11,-2&14
COc1ccc(OC)c(C2CCN(c3cc(OC)ncn3)C2)c1 (centres undefined),-4,-10
CC1=NN(CCN2CCCCC2)c2nc3c(c(=O)n(C)c(=O)n3C)n2C1,-5,-9

The list continues:
Value order: NPYLR7 agonist | NPYLR7 agonist max-min
> COc1cccc(NC(=O)N(CC(=O)Nc2cc(C(C)(C)C)nn2-c2ccc(Cl)c(Cl)c2)CC(C)C)c1
    -2 | 1
> COc1ccc2c(c1)c(C(=O)N1CCn3c(C(N)=O)cnc3C1)c(C)n2C
    2 | 0
> CC(=O)NC1C(=O)N(CCOc2cccc3ccccc23)c2c(C)cc(C)cc21 (centres undefined)
    12 | 15
> O=C(c1ccc(Br)o1)N(Cc1ccccc1)CC1CCC1
    1 | 7
> COCC(C)(C)CNC(=O)c1c(C)nn(C)c1C
    0 | 17
> COCCNC(=O)c1ccc(-n2nc(-c3ccc(Cl)cc3)cc2N)cc1
    -1 | -3
> Cc1ccccc1-c1noc(-c2cccc(NC(=O)CCN3CCCO3)c2)n1
    4 | -6
> COc1ccc(Nc2nc(NCCO)nc(N)c2[N+](=O)[O-])cc1
    1 | 0
> Cc1ccc(-c2nnc(NCCN(C)C)c3ccccc23)cc1
    11 | 6
> Cc1cc(C)n(Cc2ccc(C(=O)NC(C)c3nncn3C(C)C)cc2)n1 (centres undefined)
    -3 | -7
> COc1ccc(CCN(C)C(=O)c2cc3n(n2)CCN(Cc2c(F)cccc2Cl)C3=O)cc1OC
    -10 | -10
> Cc1ccsc1CN(Cc1ccc2c(c1)OCO2)C(=O)CN(C(=O)Nc1cccc(Cl)c1)C1CCCCC1
    0 | 5
> Cc1cc(C)n(Cc2cc(C(=O)N(C)Cc3csc(C)n3)n[nH]2)n1
    16 | 6
> COc1ccc2cc(CNc3ccc(C)cc3)c(=O)n(CC(=O)N3CCOc4ccc(C)cc43)c2c1
    4 | 11
> COC(=O)Cn1c(=O)c2c(nc3n(-c4ccc(F)cc4)c(C)cn23)n(C)c1=O
    2 | 4
> COc1ccc(C(=O)NCC2CCN(c3nc(Cc4ccc(C)cc4)ns3)CC2)cc1
    19 | 19
> O=C(Nc1ccccc1)N1CCCC(OCC2CC2)C1 (centres undefined)
    -2 | -1
> Cc1ccc(CN(C)Cc2nc(N)nc(N(C)C)n2)c(C)c1
    6 | 3
> CCCCCCCOc1ccc(NC(=O)N2CC(=O)N3CCc4ccc(Cl)cc4C3C2)cc1 (centres undefined)
    4 | 24
> COc1cccc2cc(-c3csc(NC(=O)C4CC4)n3)oc12
    6 | 5
> Cc1ccc(NC(=O)C2(C)CCN2C(=O)c2cc(C)n(C)n2)cc1C (centres undefined)
    8 | 6
> CCCN(CCC(=O)Nc1ccc(OC)cc1)c1nc(CC)nc2cc(Cl)ccc12
    17 | 23
> Cc1ccc(NC(=O)N(CC(=O)N(CCc2c[nH]c3ccccc23)Cc2ccccc2)C(C)C)c(C)c1
    12 | 17
> CCN(C(=O)CCl)C1CCS(=O)(=O)C1 (centres undefined)
    1 | 3
> N#CC(=NNc1ccc2c(c1)OCCO2)c1nc2ccccc2[nH]1
    8 | 7
> CC(=O)N1CCN(C(=O)CCN(c2ccccc2)S(=O)(=O)c2ccc(C)cc2)CC1
    4 | 1
> Cc1nc(NC(=O)CCc2c(C)[nH]c(=O)[nH]c2=O)sc1-c1ccccn1
    11 | 6
> CCc1nnc(-c2cc3ccccc3n2Cc2ccc(C)cc2)o1
    0 | -2
> Cc1ccc(OCC(N)=O)c(-c2cccc3[nH]ccc23)c1
    -4 | -1
> CC(C)C(=O)N(Cc1cc(NC(=O)C2CCC2)ccc1N(C)C)C(C)C
    -2 | 13
> C=CCn1c(SCC(=O)NC(=O)c2ccco2)nc2ccsc2c1=O
    8 | 6
> CCc1ccccc1N1CCN(C(=O)c2ccccc2C)C(C)C1=O (centres undefined)
    10 | 19
> CCc1ccc(CN2CCC(c3ccnc(-c4ccncc4)c3)C2)nc1 (centres undefined)
    2 | 1
> CC(NC(=O)C1(C#N)CCCC1)c1ccccc1Cl (centres undefined)
    -1 | -3
> Cc1noc(-c2ccco2)c1C(=O)N1CCC(Cc2ccc3c(c2)OCO3)CC1
    -2 | 3
> Cc1sc2ncn(CCC(=O)NCC3(c4ccccc4)CCC3)c(=O)c2c1C
    6 | 4
> Nn1c(Nc2ccccc2)nnc(/C=C/c2ccccc2)c1=O
    -2 | -2
> COc1ccc(NS(=O)(=O)C2Cc3ccccc3C2)c(OC)c1
    9 | 5
> CS(=O)(=O)c1ccc2nc(NC(=O)c3ccc(I)cc3)sc2c1
    1 | 5
> COc1c(C)cnc(CN2CCC3(CCCO3)CCC2=O)c1C (centres undefined)
    5 | 0
> CC(C)N(Cc1ccc(OS(=O)(=O)c2cccc(C(F)(F)F)c2)cc1)C(=O)C(C)(C)C
    1 | 9
> Cc1nc(COc2ccc3c(-c4ccccc4F)noc3n2)cs1
    4 | 3
> Cc1cccc(N2CCN(C(=O)CCN3Cc4ccccc4OC(c4ccccc4F)C3)CC2)n1 (centres undefined)
    19 | 6
> O=S(=O)(c1ccccc1)n1cccc1CN1CCCn2cncc2C1
    3 | 1
> COCCNC1CCC2(CC1)CN(CCO)CCc1ccccc12 (centres undefined)
    1 | -4
> CC(=O)c1ccc(-c2ccc(C(C)=O)s2)s1
    1 | 2
> Cc1nnc(SCC(=O)Nc2c(C)n(C)n(-c3ccccc3)c2=O)s1
    -7 | -12
> C=CCc1ccc(OCCOc2ccc(F)cc2)c(OC)c1
    -1 | -2
> CC1CCCC(NC(N)=O)C1C (centres undefined)
    -5 | -9
> CCN(CCOc1ccccc1F)C(=O)c1ccc(N(C)C)cc1
    1 | -9
> C=CCSc1nc2c(c(=O)n(C)c(=O)n2C)n1Cc1cccc(C)c1
    14 | 4
> CCc1ccc(NC(=O)c2cncc(NS(=O)(=O)c3ccc(F)cc3)c2)cc1
    -8 | -1
> CC(C)Cc1nc(-c2cc(C(C)C)n3ncnc3n2)n(-c2ccccn2)n1
    -3 | -6
> CNC(=O)c1cnc(N2CCN(Cc3ccccc3C#N)C2=O)s1
    -1 | -1
> CC(C)NC(=O)C1(N2Cc3ccc(-c4ccnn4C)nc3C2=O)CC1
    -3 | -6
> Cc1cc(C)n(-c2nc(N3CCOCC3)nc(N3CCOCC3)n2)n1
    -10 | -13
> Oc1cc(-c2cccc(Cl)c2)cc2c1OCCN(CCC1CCOC1)C2 (centres undefined)
    2 | -6
> CC(C)c1nnc(-c2cc3ccccc3n2CC(=O)NCc2ccc(F)cc2)o1
    -1 | -1
> C/C(=N/Nc1nc(N2CCCCC2)nc(N2CCOCC2)n1)c1cccs1
    -6 | -7
> O=C(NCc1ccc2c(c1)OCO2)c1cn(Cc2ccccc2F)c(=O)s1
    8 | 6

Additional structures.
Value order: NPYLR7 agonist | NPYLR7 agonist max-min
> CN(C)c1cc(CNc2ccc(C(=O)N3CCc4ccccc43)cn2)ccn1
    -6 | -9
> CCc1csc(CNC2CCN(c3ccc(C)cc3)CC2)n1
    18 | 15
> CCC(C)N(Cc1ccc(OS(C)(=O)=O)cc1)C(=O)Nc1ccccc1OC (centres undefined)
    16 | 11
> Cc1nc2ncc3c(=O)n(-c4ccccc4)ccc3n2n1
    -6 | -1
> O=C(c1cccc(F)c1)N(Cc1ccco1)Cc1ccccc1OS(=O)(=O)c1ccc(F)cc1
    0 | 9
> OC1CCN(c2ccnc(N3CC(c4ccccn4)C3)n2)CC1
    0 | -1
> CCCCCCCn1c(CN2CCCCC2CC)nc2c1c(=O)n(C)c(=O)n2C (centres undefined)
    2 | 2
> Cc1onc(-c2c(Cl)cccc2Cl)c1C(=O)Nc1ccc(CCNC(=O)NC(C)C)cc1
    -5 | -12
> COc1cccc(NC(=O)C2(C)CCCN2C(=O)C(C)C)c1 (centres undefined)
    0 | 0
> Cc1ccc(C2=NN(C(=O)CN3CCN(c4ccccc4F)CC3)C(c3cccc(F)c3)C2)cc1C (centres undefined)
    0 | 10
> CC(=O)N1CCC[C@H]1C(=O)O
    8 | 4
> Cc1cc(N2CC(C)CC(C)C2)n2c(nc3ccccc32)c1C#N (centres undefined)
    7 | 12

Source: PubChem BioAssay

A portion of the library. The share of hits here may be higher or lower than overall.
